Calb biofilm kill = mixtures killing C. albicans biofilm | inhibition, % at 7.6 µM | actives 0.02% (n = 120,000) | C. albicans biofilm persisters + clotrimazole, fluorescence viability; primary screen in compound mixtures of four per well;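 active means inhibition above 30.3% in the primary screen of four-compound pools, then above 30% when the compound was retested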;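 further: compounds exposed to preformed 24 h biofilms for 48 h; the number belongs to the whole pool; some results filed as inactive read as strong as hits; inactives centre near 12; 0% = biofilm with clotrimazole alone and 100% = kill control; retested singly at about 60 µM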
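System: C. albicans CAF4-2 wild-type biofilms; Medium: RPMI/MOPS medium, pH 7.0; Reagent: Clotrimazole, 50 µg/mL; Times: biofilm formation 24 h, compound exposure 48 h, 37 °C; Detection: 2-h Alamar Blue fluorescence, 535/590 nm excitation/emission; Evaluation: percent inhibition of biofilm viability.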
* marks the source's active call; other numbers are inactive results.

smiles | Calb biofilm kill
O=C(CCN1CCN(C(c2ccccc2)c2ccccc2)CC1)N/N=C/c1ccc(O)cc1O | 9.3
Cc1nn(C)c(Cl)c1C(N)=O | 10.1
COc1ccc(CC(=O)N2CCCC(CNC(=O)c3ccccc3Cl)C2)cc1 (stereo not drawn) | -17.8
CCN(Cc1ccncc1)C(=O)CCc1nnc(CCc2ccc(OC)cc2)o1 | 13.9
Cc1ccccc1Nc1nnc(SCC(=O)NC(=O)Nc2ccc3c(c2)OCCO3)s1 | 14.2
Cc1ccc(S(=O)(=O)N2CCOCC2)cc1NC(=O)CSc1nnc2cc(C)c3ccccc3n12 | 20.7
COc1ccc(C2CC(c3cccs3)=NN2C(=O)CN2CCCCC2)cc1 (stereo not drawn) | 17.3
COc1ccc(/C(N)=N/OC(=O)N2CCOCC2)cc1 | 17.5
COc1ccc(C(C)=O)cc1CSc1ccccn1 | 7.8
CN(C)N=C1c2cc(S(=O)(=O)N3CCOCC3)ccc2-c2ccc(S(=O)(=O)N3CCOCC3)cc21 | -0.9
CCc1cc2c3c(c1)C(C)CC(C)(C)N3C(=O)/C2=C1\SC(=O)NC1=O (stereo not drawn) | 30.7
O=c1cc(CO)oc(C(Nc2cccc([N+](=O)[O-])c2)c2ccccn2)c1O (stereo not drawn) | 10.0
O=C(Nc1nc2ccccc2c(=O)[nH]1)c1ccccc1SCc1ccccc1 | 10.0
S=C(Nc1ccccc1Cl)NC1CCN(Cc2ccccc2)CC1 | 6.7
CCOC(=O)c1cc(-c2cccs2)[nH]n1 | 12.9
O=[N+]([O-])c1cccc(/C=N/Nc2nc(N3CCOCC3)nc(N3CCOCC3)n2)c1 | 5.9
CCS(=O)(=O)c1ccc2oc(SCC(=O)NCCc3ccc(OC)cc3)nc2c1 | 7.0
CN(C)c1ccc(/C=C2/C=C(c3ccc4c(c3)CCCC4)OC2=O)cc1 | 19.1
O=c1oc2ccccc2c2c1nnn2CCO | -2.2
CCCC(=O)NC(c1ccc(OC)cc1)c1ccc2cccnc2c1O (stereo not drawn) | 28.1
COc1ccc(-c2nnn(CC(=O)N(CC(=O)NC3CCCC3)Cc3ccco3)n2)cc1OC | 5.7
COc1cccc(NC(=O)Nc2cccn(Cc3ccc(C)cc3)c2=O)c1 | 0.3
CC1CC(C)(C)NC(=S)N1CCCC(=O)NCCc1ccc(Cl)cc1 (stereo not drawn) | 18.6
O=C(Nc1nc(COc2ccccc2)cs1)c1ccccc1F | 2.5
Cc1onc(-c2c(Cl)cccc2Cl)c1NC(=O)NC1CCSC1 (stereo not drawn) | 16.0
COc1ccc(CCNC(=S)Nc2ccc(C(C)C)cc2)cc1 | 9.2
Cc1cc(Nc2ncc(Cl)cc2Cl)n(-c2ccccc2C)n1 | 12.1
CN(C)S(=O)(=O)Nc1cc(F)cc(F)c1 | 7.1
O=C(NNc1cc(N2CCOCC2)nc(N2CCOCC2)n1)c1ccc(Cl)cc1Cl | 20.3
Cc1cccc(NC(=O)CSc2nc(N)cc(N)n2)c1 | 9.1
CNc1ncc(C(=O)c2ccc(-c3ccccc3)cc2)s1 | 19.8
CN(/N=C/c1cc(Cl)cc(Cl)c1O)C(=S)NC(C)(C)C | 11.8
COc1ccc(C2Nc3cc(OC)ccc3-n3cccc32)cc1 (stereo not drawn) | 9.7
CN(c1ccccc1C(=O)Nc1ccc(F)c(F)c1)S(C)(=O)=O | 5.5
O=C(Oc1ccc(Nc2ncnc3ccccc23)cc1)c1cccnc1 | 0.3
CCCn1c(SCN2C(=O)c3ccccc3C2=O)nc2cc(Cl)ccc2c1=O | 4.7
CCNC(=S)NCc1ccc2[nH]c(C)cc2c1 | 10.2
O=C(Oc1cccc(-n2cnnn2)c1)c1ccccc1 | 8.6
CCCNc1nc(=S)n(-c2ccccc2)c(C)c1C(C)=O | 14.3
COc1ccccc1Cn1c(=S)[nH]c2cc(C(=O)NCC3CCCO3)ccc2c1=O (stereo not drawn) | 11.9
CC(C)N1CCN(Cc2ccc(C#CC(C)(C)O)s2)CC1CCO (stereo not drawn) | 12.9
O=C(O)c1ccccc1Nc1ccc(OC(F)F)cc1 | 8.4
O=C(O)CN1C(=O)c2ccc(Oc3ccc4c(c3)C(=O)N(CC(=O)O)C4=O)cc2C1=O | 13.9
O=C(Cc1ccccc1)N1CCN(C(=O)c2ccc([N+](=O)[O-])cc2)CC1 | 7.9
c1cncc(CSc2ccc(-c3cccnc3)nn2)c1 | 15.2
CC1=Nc2ccccc2N=C(NC(=O)/C=C/C(=O)O)C1c1ccccc1 (stereo not drawn) | 50.9
CC(C)(C)C(=O)Nc1nnc(SCc2cccc(F)c2)s1 | 7.9
CCN(CC(=O)Nc1cc(Cl)ccc1C)C(=O)C1CCCCC1 | 26.4
CCCCn1c(SCC(=O)Nc2cc(C(F)(F)F)cc(C(F)(F)F)c2)nnc1C(CC)N(C)C (stereo not drawn) | 14.5
CCOc1cccc2sc(Nc3nc4ccc(NC(C)=O)cc4s3)nc12 | 4.8
COC(=O)c1sccc1S(=O)(=O)Nc1ccc(S(N)(=O)=O)cc1 | 9.9
COc1ccc(CN2CCN(Cc3ccccc3)C(CCO)C2)cc1OC (stereo not drawn) | 17.1
CCN(CC(=O)Nc1ccc2c(c1)OCCO2)CC(=O)Nc1ccc2c(c1)OCO2 | 9.8
Cc1cnc(NS(=O)(=O)c2ccccc2)c(Br)c1 | 9.1
CNC(=O)CSc1ncnc2c1cnn2-c1ccccc1 | 7.2
O=C(CSc1cccc[n+]1[O-])Nc1ccc2c(c1)OCCO2 | 1.3
CC1=CC(=C(C#N)C#N)c2ccccc2N1C | 8.8
Cn1ccnc1SCC(=O)Nc1cccc([N+](=O)[O-])c1 | -2.0
COc1ccc(N2C(=O)CC(NC3CCCCNC3=O)C2=O)cc1 (stereo not drawn) | 14.9
O=c1oc2ccc(Cl)cc2nc1/C=C(\O)c1cccs1 | 27.0

Continuation.
smiles | Calb biofilm kill
OCC1(CCCc2ccccc2)CCN(Cc2cc(F)ccc2F)CC1 | -4.6
COc1cc(CNCc2cccnc2)ccc1OCc1ccccc1 | 5.7
O=C(Nc1c(C(=O)Nc2cccc3ccccc23)cnn1-c1ccccc1)c1ccco1 | 4.3
COc1ccc(S(=O)(=O)NNC(=O)c2sccc2-n2cccc2)cc1 | 9.2
COc1cc(/C=N/NC(N)=S)ccc1OCC(=O)N1CCOCC1 | 25.6
CN(CCc1ccccn1)C(=O)CCC1CCCN(C(=O)c2c3c(nn2C)CCCC3)C1 (stereo not drawn) | 2.8
O=c1c2ccccc2ncn1-c1ccc(Cl)cc1Cl | 21.2
CN(C)CC1CCCCC1C1(O)c2ccccc2CSc2sccc21 (stereo not drawn) | 13.8
Cc1ccc(S(=O)(=O)/N=C/c2cc(Br)ccc2O)cc1 | 11.3
COc1ccc(OCC(=O)Nc2c3c(nn2C(C)(C)C)CSC3)cc1 | 15.3
CCSc1nnc(NC(=O)C2CC(=O)N(Cc3ccc(C)cc3)C2)s1 (stereo not drawn) | -0.6
Cc1cccc(N=C2NC(=O)/C(=C/c3cccn3C)S2)c1 | 13.9
CC(C)(C)NC(=O)C(=O)NNC(=O)c1ccccc1Br | 18.6
Cc1ccc(S(=O)(=O)Nc2ccc(SC(F)F)cc2)c(C)c1 | -13.3
O=[N+]([O-])c1cc(C(F)(F)F)ccc1NCCCN1CCOCC1 | 5.4
C=CCNC(=O)c1onc(CSc2cc(C)cc(C)c2)c1C(=O)NCC=C | 15.0
C/C(=N\NC(=O)COc1ccc(C)cc1C(C)C)c1ccc(-n2ccnc2)cc1 | 11.4
C/C(Cn1cnc([N+](=O)[O-])n1)=N/NC(=O)COc1ccccc1Cl | 7.4
CCNc1nc(NC(C)(C)C)nc(N2CCCC2)n1 | 9.8
COC(=O)c1sccc1NC(=O)c1ccccc1 | 13.8
COCCn1c(SCC(=O)c2c[nH]c3ccccc23)nnc1-c1ccncc1 | -6.4
O=C(CN1C(=O)C2CCCCC2C1=O)N1CCN(c2ccc(F)cc2)CC1 (stereo not drawn) | 11.2
COC(=O)C(CC(C)C)NC(=O)c1cccs1 (stereo not drawn) | 13.8
C=CCn1c(N2CCOCC2)nc2c1c(=O)[nH]c(=O)n2C | 18.7
Cc1cccc2nc(CSc3nc4[nH]ncc4c(=O)n3-c3ccccc3Cl)cc(=O)n12 | 23.1
O=C([C@H](O)c1ccccc1)N1CCC[C@H]1CO | 8.3
Fc1cccc(/C=N/NC(=S)Nc2ccccc2Cl)c1 | 13.2
NNC(=O)c1cc2ccccc2[nH]1 | 13.9
COc1ccc(-c2cc(C(=O)Nc3ccc(Cl)cc3Cl)c3ccccc3n2)cc1OC | 6.8
COc1ccc(/C=N/OCC(=O)Nc2nc3ccccc3s2)cc1OC | 11.7
CN(C)c1ncccc1-c1nc2ccccc2s1 | -8.0
Oc1ccc2c(ccc3[nH]cnc32)c1 | 1.4
CCOc1ccc(N(CC(=O)Nc2ccc(OC)cc2)S(=O)(=O)c2c(C)[nH]c(=O)[nH]c2=O)cc1 | 12.7
Cc1nonc1NC(=O)CSc1nc(C23CC4CC(CC(C4)C2)C3)nc2ccccc12 | 9.7
O=C(NCC(O)c1ccc([N+](=O)[O-])cc1)C1CCCCC1 (stereo not drawn) | 13.9
Cc1ccccc1CSc1nnc([C@@H]2CCCN2)o1 | 18.9
C=CCNC(=S)Nc1c(C(=O)OC)[nH]c2cc(OC)ccc12 | 18.0
CN(C[C@H](c1ccccc1)N(C[C@H](Cc1ccccc1)N(CCc1ccccc1)N=O)N=O)N=O | 19.6
COc1ccc(/C(C)=N\Nc2nc(-c3ccc(Cl)cc3)cc(C(F)(F)F)n2)cc1OC | 10.6
COc1ccc2nc(NCCCO)[nH]c2c1 | 13.9
CCOC(=O)C1=C(C)NC(C)=C(C(=O)OC)C1c1cccc([N+](=O)[O-])c1 (stereo not drawn) | 13.3
CC(C)COc1ccc(C(=O)N/C(=C/c2cccc([N+](=O)[O-])c2)C(=O)O)cc1 | 17.9
COc1cc(C(O)P(=O)(OCC(C)C)c2ccc(N(C)C)cc2)cc(OC)c1OC (stereo not drawn) | 29.3
O=C(CS(=O)c1ccc(F)cc1)Nc1ccccc1Cl (stereo not drawn) | 15.8
NC1=NN(c2cccc(C(=O)O)c2)C(=O)C1 | 14.3
Cc1nc(NC(=O)CCl)sc1C(=O)N(C)C | 6.4
O=C(CNC(=O)c1ccccc1)OC1CCCCC1 | 8.0
Cc1cc(C(F)(F)F)n(-c2ccc(N)cc2)n1 | 2.5
O=C1OC(/C(=C\NCc2ccccc2)[N+](=O)[O-])c2ccccc21 (stereo not drawn) | -3.7
Cc1onc(-c2c(Cl)cccc2Cl)c1NC(=O)N1CCSCC1 | 15.8
COc1ccc(/C(C)=N/Nc2nc3ccccc3nc2C)cc1OC | 8.7
CC1CCN(CC(O)COC2CC(C)CCC2C(C)C)CC1 (stereo not drawn) | 1.7
O=C(COc1cccc2c1CCN(Cc1ccccc1F)C2=O)N1CCCCC1 | -9.3
COC(=O)CS(=O)(=O)c1ccc(C)cc1 | 6.7
CC(=O)N1CCC(N(CCN2CCOCC2)C(=S)Nc2c(C)cccc2C)CC1 | 17.2
Cc1cc(C)nc(N/N=C/c2c[nH]c3ccccc23)n1 | 5.3
Cc1ccc(C(=O)C(OC(=O)c2cnccn2)c2ccccc2)cc1 (stereo not drawn) | 17.3
COc1ccc(C)cc1NC(=O)C(Sc1nnc(-c2ccncc2)n1-c1ccc(Cl)cc1)c1ccccc1 (stereo not drawn) | 6.5
CCOC(=O)c1ccc(N2C(=O)CC(N3CCC(C(N)=O)(N4CCCCC4)CC3)C2=O)cc1 (stereo not drawn) | 6.1
O=C(Cc1cccs1)NCCCc1ccccc1 | 16.5

Going on with the list.
smiles | Calb biofilm kill
COc1cccc(CC2(CO)CCCN(CC3=Cc4cc(OC)ccc4OC3)C2)c1 (stereo not drawn) | 17.2
CN(C)CCOc1cccc(Br)c1 | 12.2
Cc1cc(C=O)c2c(c1)C=CC1(Oc3ccccc3C(=O)N1C)O2 (stereo not drawn) | 10.8
Cc1ccc(C2(CCNC(C)c3cccs3)CCOC(C(C)C)C2)cc1 (stereo not drawn) | 41.1*
C=CCn1c(=O)[nH]c2cc(C(=O)N3CC=C(c4ccccc4)CC3)ccc2c1=O | 7.2
O=C(Cc1ccccc1)N/N=C/c1ccc(OC(=O)/C=C\c2ccco2)cc1 | 9.6
O=C(c1ccc(=O)oc1)N1CCC(C(O)(c2ccccc2)c2ccccc2)CC1 | 23.0
COc1nc(N(C)C)nc(N2CC(=O)N(CCNS(=O)(=O)c3ccc(C)cc3)C2=N)n1 | 11.2
CC1CCN(C(=O)C2CCN(S(=O)(=O)c3cc(Cl)ccc3Cl)CC2)CC1 | 25.8

Part of the list above in a different format.
compound: O=c1c2ccccc2ncn1-c1ccc(Cl)cc1Cl
  Calb biofilm kill: 21.2

compound: CN(C)CC1CCCCC1C1(O)c2ccccc2CSc2sccc21 (stereo not drawn)
  Calb biofilm kill: 13.8

compound: Cc1ccc(S(=O)(=O)/N=C/c2cc(Br)ccc2O)cc1
  Calb biofilm kill: 11.3

compound: COc1ccc(OCC(=O)Nc2c3c(nn2C(C)(C)C)CSC3)cc1
  Calb biofilm kill: 15.3

Among those listed so far, 3 contain a furan ring, fused or not:
smiles | Calb biofilm kill
COc1ccc(-c2nnn(CC(=O)N(CC(=O)NC3CCCC3)Cc3ccco3)n2)cc1OC | 5.7
O=C(Nc1c(C(=O)Nc2cccc3ccccc23)cnn1-c1ccccc1)c1ccco1 | 4.3
O=C(Cc1ccccc1)N/N=C/c1ccc(OC(=O)/C=C\c2ccco2)cc1 | 9.6

Screens: PubChem BioAssay, PCMD

The list is partial; count on the stated rates, not on these rows.
